TRPML1 blocker – inhibitors of human TRPML1 channel; 390,000 tested, 0.02% active; activity change, negative = inhibition, % (test concentration not listed); AID 624415; TRPML1-inducible cells, Ca2+ dye fluorescence, FDSS; stronger effect = lower value; inhibition of EC80 agonist-evoked calcium signal; Q9GZU1; in the data active means activity change below about -50%; inconclusive means about -30% to -50%; inactive means above about -30%;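 also: stimulus is agonist 54-4 at its EC80 concentration; % is scaled to controls: 0 for no effect and ±100 for the full control effect; compound concentration not given in the record; the text of the record puts the active cut at -80%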
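Calcium fluorescence in TRPML1-DL cells induced overnight with Tet: a 110 s read after compound pin addition, then a 110 s antagonist read after challenge with 54-4 at 4 uM final (EC80).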
Six1-Eya2 inh – inhibitors of human Six1/Eya2 interaction; AlphaScreen GST-Six1/His-Eya2 binding, biochemical; stronger effect = lower value; control for the full effect not named in the record; activity change, % (test concentration not listed); 360,000 tested, 0.56% active; AID 651725; in the data active = activity change below about -65%; inconclusive = about -30% to -65%; inactive = above about -30%; also: % is scaled to controls: 0 for no effect and ±100 for the full control effect; compound concentration not given in the record
Target sequence (O00167 whole entry, looked up): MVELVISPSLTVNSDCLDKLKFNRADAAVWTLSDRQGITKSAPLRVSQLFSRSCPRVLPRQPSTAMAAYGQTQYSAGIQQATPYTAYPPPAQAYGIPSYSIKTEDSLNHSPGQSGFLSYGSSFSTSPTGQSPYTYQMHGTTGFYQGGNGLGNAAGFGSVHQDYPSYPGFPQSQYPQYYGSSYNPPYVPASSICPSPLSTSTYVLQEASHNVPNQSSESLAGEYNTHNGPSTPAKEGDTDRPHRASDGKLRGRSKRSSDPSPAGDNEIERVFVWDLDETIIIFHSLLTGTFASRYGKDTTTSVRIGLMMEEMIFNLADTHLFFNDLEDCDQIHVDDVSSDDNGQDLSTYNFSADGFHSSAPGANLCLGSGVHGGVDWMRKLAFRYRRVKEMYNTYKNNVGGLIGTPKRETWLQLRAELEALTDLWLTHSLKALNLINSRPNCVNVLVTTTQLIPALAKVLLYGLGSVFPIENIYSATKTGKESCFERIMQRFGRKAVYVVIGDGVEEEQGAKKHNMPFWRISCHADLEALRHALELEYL
Target sequence (Q15475 whole entry, looked up): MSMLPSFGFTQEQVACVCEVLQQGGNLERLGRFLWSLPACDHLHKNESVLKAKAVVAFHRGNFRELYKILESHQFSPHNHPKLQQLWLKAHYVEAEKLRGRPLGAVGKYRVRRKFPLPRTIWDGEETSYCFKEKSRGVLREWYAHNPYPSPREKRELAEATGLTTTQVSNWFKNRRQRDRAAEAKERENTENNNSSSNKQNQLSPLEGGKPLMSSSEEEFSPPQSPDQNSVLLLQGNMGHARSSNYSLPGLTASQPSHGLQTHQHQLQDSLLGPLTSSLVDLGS
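Compounds are tested against tagged Six1 and Eya2 proteins bridged by glutathione donor and nickel acceptor beads; after a one-hour incubation at 37 °C without light, AlphaScreen emission is recorded.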
TRPML1 ag – activates the human TRPML1 channel; Q9GZU1; TRPML1-expressing cells, Ca2+ dye fluorescence, FDSS; host cell line not named in the record; reference of the full effect not given here; activation, % (test concentration not listed); 410,000 tested, 0.12% active; AID 624414; in the data active = activation above about 50%; inconclusive = about 30% to 50%; inactive = below about 30%; also: 0% is about no effect; the text of the record puts the active cut at 80%
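Calcium fluorescence on an FDSS kinetic reader gave the read-out. Tet-induced TRPML1-DL cells were plated overnight, dye-loaded (Ca8 with quencher, 45-90 min, room temperature, dark), then read 110 s after compound addition, and again 110 s after 4uM final 54-4 (EC80).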
D2 PAM – positive allosteric modulators of human D2 dopamine receptor; DiscoveRx D2 beta-arrestin cells, luminescence, 90 min; 100% = 57 uM dopamine signal; 360,000 tested, 0.23% active; P14416; potentiation, % (test concentration not listed); active = potentiation of 50% or more; inconclusive = 30% to 50%; inactive = 30% or less;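 also: compound concentration not given in the record; tested on top of an EC20 dose of dopamine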
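PathHunter D2 cells, attached overnight at 37 deg C, received compound in DMSO plus dopamine at EC20 (50 nM final) for 90 min at 37 deg C. Beta-arrestin recruitment was read as luminescence after 1 h with detection reagent at ambient temperature.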
PINK1 expr mod – PINK1 expression modulation; PINK1 immunofluorescence, high-content cytometry, 24 h; Potency, µM (series often up to 76.6 µM), for the others: at the top dose activation (PINK1 increase), most hits filed as activators; 410,000 tested, 0.2% active; active = well fitted activation curve with a large enough effect; inconclusive = small, poorly fitted or top-dose-only effect; inactive = flat fitted curve, though single readings scatter; cell line not stated here;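 also: potency is read from the fitted curve at half-maximal effect; % of control where 0% means no effect; nearly all actives have a fitted effect of over 65% in size; a mitochondrial uncoupler was the plate control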
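Compound titrations (5 concentrations, 24 h) on a stable cell line; DMSO and CCCP controls. Endpoint: fixed-cell PINK1 immunofluorescence with mitochondrial, cell and nuclear markers, scanned by microplate cytometer.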
D2 agonist – agonists of human D2 dopamine receptor (beta-arrestin); 360,000 tested, 0.084% active; activation, % (no concentration beside the values); DiscoveRx PathHunter D2 beta-arrestin, luminescence, 90 min; 100% = 57 uM dopamine signal; P14416; in the data active = activation above about 40%; inconclusive = about 15% to 40%; inactive = below about 15%; also: compound concentration not given in the record; the text of the record calls up to 30% inactive
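DiscoveRx PathHunter D2 beta-arrestin cells (2,100/well) attached overnight, then compound-stimulated 90 min at 37 C in HBSS/10 mM HEPES/0.1% Tween-20 buffer; beta-galactosidase complementation read by luminescence after 1 h at ambient temperature. Dopamine 57 uM final (EC100) as control.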
Active calls of the source: *; ? = inconclusive; · = not tested or not shown; [ ] = remark or other dose.

SMILES	TRPML1 blocker	Six1-Eya2 inh	TRPML1 ag	D2 PAM	PINK1 expr mod	D2 agonist
Cc1ccc(N2C(=O)N3[C@H](c4ccc(Cl)cc4)[C@@H]4C(=O)N(C5CCCCC5)C(=O)[C@@H]4[C@]3(Cc3ccccc3)C2=O)cc1	11	-2	1.7	-14	0.0%	0.9
Cc1ccc(-c2onc3ccc(C(=O)O)cc23)cc1	-13	5	0.6	-4	0.4%	4.7
CSc1ncc(C(=O)Nc2ccc(C)c(Cl)c2)c(-c2ccccc2)n1	18	·	2.1	·	?	·
COc1ccccc1N1CC(C(=O)Nc2nnc(SCC(=O)N3CCCC3)s2)CC1=O (stereo not given)	3	0	0.0	5	0.2%	-3.8
CCOc1ccc(CN2CCN(CCCc3ccccc3)CC2CCO)cc1 (stereo not given)	-3	0	1.1	-3	1.9%	-1.1
CC(C(=O)NC1CCCC1)N(C(=O)Cn1nnc(-c2ccc(F)cc2)n1)c1ccccc1F (stereo not given)	-8	11	2.9	10	-3.0%	?
COc1cccc(C(O)c2nc(-c3ccc(OC)nc3)cs2)c1 (stereo not given)	-5	-1	0.1	-5	0.1%	-1.3
CCOc1ccc(NC(=O)C2CCCN(S(=O)(=O)c3ccc4c(c3)CCCN4C(C)=O)C2)cc1 (stereo not given)	-1	-27	-0.3	-10	2.1%	0.2
Cc1ccc(NC(=O)c2cccc3ccccc23)cc1	17	3	-0.8	-4	5.3%	-0.2
O=C(OCC(=O)N1CCN(C(=O)c2ccco2)CC1)c1ccccc1C(=O)c1ccccc1	19	-1	-0.2	-5	-0.8%	-0.6
Cc1cccc(NC(=S)N2CCC(NC(=O)C3CCCCC3)CC2)c1	2	16	-1.4	-3	9.3%	-3.3
CC(=O)c1ccc(N2CCc3ccccc3C2)c([N+](=O)[O-])c1	65	?	2.3	-9	0.0%	-2.7
COc1c(C)cccc1C(=O)Nc1cc(-c2nn3c(C)nnc3s2)ccc1C	-4	3	1.2	0	12%	-2.5
COc1cccc(N2CCN(c3ccc4nnc(CCC(=O)Nc5cccc(C(C)=O)c5)n4n3)CC2)c1	-7	0	0.5	1	1.2%	0.2
COC(=O)c1cc2occc2n1Cc1nc(-c2ccc(C)cc2)oc1C	41	·	0.4	·	2.6%	·
Cc1csc(=O)n1CC(=O)OC(C)C(=O)Nc1cccc(Cl)c1 (stereo not given)	-5	-11	0.7	-19	-1.7%	0.4
COc1ccc(Nc2ncc3c(n2)CCN(C(=O)OC(C)(C)C)C3)cc1	-9	·	0.9	·	9.4%	·
CC1(C)CC(=O)C2=C(C1)Nc1ccccc1NC2c1ccccc1F (stereo not given)	2	4	-0.5	-2	-0.1%	4.2
Cc1ccc(Sc2ncccc2C(=O)NCc2cc([N+](=O)[O-])ccc2O)cc1C	-5	-10	0.0	-9	2.0%	-11
C=CCC(=O)N1CCCC(CCC(=O)NCc2ccccc2F)C1 (stereo not given)	-15	14	-1.2	-1	3.2%	4.0
CCCCCNC(=O)c1ccc2c(c1)ncn2-c1cccc(C)c1	29	·	-0.1	·	3.6%	·
C/C(=N\Nc1nc2ccccc2s1)c1cccs1	6	-11	-0.7	6	7.0%	4.8
CCOc1ccc(OCCC(=O)Nc2ccccc2C(=O)NC2CC2)cc1	-7	4	-0.7	-23	-0.3%	-1.9
Cc1ccc2c(c1)C(c1ccccc1)N(C(=O)Cc1ccc(F)cc1)CC(=O)N2 (stereo not given)	11	·	-1.2	·	-2.3%	·
COc1ccc(OCC(=O)NCc2ccc3c(c2)CCN3C(=O)c2cccc(C)c2)cc1	-5	·	0.4	·	6.7%	·

Some entries already given, limited to TRPML1 blocker, D2 PAM and Six1-Eya2 inh.
| SMILES | TRPML1 blocker | D2 PAM | Six1-Eya2 inh |
| --- | --- | --- | --- |
| CCOc1ccc(NC(=O)C2CCCN(S(=O)(=O)c3ccc4c(c3)CCCN4C(C)=O)C2)cc1 (stereo not given) | -1 | -10 | -27 |
| COc1c(C)cccc1C(=O)Nc1cc(-c2nn3c(C)nnc3s2)ccc1C | -4 | 0 | 3 |

Looked up by compound from the entries so far (two):
SMILES	TRPML1 blocker	Six1-Eya2 inh	TRPML1 ag	D2 PAM	PINK1 expr mod	D2 agonist
O=C(OCC(=O)N1CCN(C(=O)c2ccco2)CC1)c1ccccc1C(=O)c1ccccc1	19	-1	-0.2	-5	-0.8%	-0.6
Cc1ccc(Sc2ncccc2C(=O)NCc2cc([N+](=O)[O-])ccc2O)cc1C	-5	-10	0.0	-9	2.0%	-11

Back to the main list, repeating the five entries before the break.
SMILES	TRPML1 blocker	Six1-Eya2 inh	TRPML1 ag	D2 PAM	PINK1 expr mod	D2 agonist
CCCCCNC(=O)c1ccc2c(c1)ncn2-c1cccc(C)c1	29	·	-0.1	·	3.6%	·
C/C(=N\Nc1nc2ccccc2s1)c1cccs1	6	-11	-0.7	6	7.0%	4.8
CCOc1ccc(OCCC(=O)Nc2ccccc2C(=O)NC2CC2)cc1	-7	4	-0.7	-23	-0.3%	-1.9
Cc1ccc2c(c1)C(c1ccccc1)N(C(=O)Cc1ccc(F)cc1)CC(=O)N2 (stereo not given)	11	·	-1.2	·	-2.3%	·
COc1ccc(OCC(=O)NCc2ccc3c(c2)CCN3C(=O)c2cccc(C)c2)cc1	-5	·	0.4	·	6.7%	·
CCN(CCCNC(=O)c1cc2c(=O)[nH]c3ccc(C)cc3c2s1)Cc1ccccc1	15	·	1.0	·	-1.9%	·
COc1ccc(-c2c[n+]3c4n2CCCCC4=C(c2ccccc2)C3)cc1	-6	-8	1.2	-7	?	-0.8
CC(C)CC1(C)NC(=O)N(CCN2C(=O)c3ccccc3C2=O)C1=O (stereo not given)	-1	2	-0.5	6	3.7%	1.6
CS/C(Nc1cc(Cl)ccc1Cl)=C(/C#N)C(=O)c1ccco1	-6	?	-0.9	-2	-0.7%	-3.5
O=C(CC1C(=O)NCCN1Cc1ccc(-c2ccccc2)cc1)NCCCn1ccnc1 (stereo not given)	-3	0	0.1	-2	-0.9%	2.4
CC(=O)N1CCc2cc(Br)cc(S(=O)(=O)N3CCC(C(=O)Nc4cccc(C)c4C)CC3)c21	-6	·	2.1	·	0.6%	·
COCCCNC(=O)CCS(=O)(=O)Cc1ccc(C)cc1	26	3	-0.2	-2	-1.4%[38.3 µM]	-1.1
CC(C)Nc1nnc(SCC(=O)N2CCN(C(=O)c3ccco3)CC2)s1	-1	-19	1.3	-21	2.1%	2.5
Cn1c(=O)c2c(ncn2CCOc2ccc(F)cc2)n(C)c1=O	3	1	1.0	-6	-2.2%	-2.4
CCn1cc(C(=O)NCCCN2CC(C)CC(C)C2)c(=O)c2cc(S(=O)(=O)N(C)C)ccc21 (stereo not given)	8	1	0.2	-9	1.9%	-0.2
CCOc1ccc(S(=O)(=O)Nc2cccc(C(=O)N3CCN(C(C)=O)CC3)c2)cc1	15	-2	-0.7	1	-1.5%	-5.5
COc1ccc(N=C2SC(C(=O)N3CCN(c4ccc([N+](=O)[O-])cc4)CC3)CC(=O)N2C)cc1 (stereo not given)	-9	-13	0.6	-2	0.5%	-2.2
O=C(CSc1nnc(C2CCCCC2)o1)N1CCCCC1	-10	24	-0.6	-1	0.4%	-1.5
CC1=NN(C(=O)c2ccco2)C(O)(c2ccccc2)C1 (stereo not given)	-4	2	0.3	-7	0.6%	-1.5
Cc1ccc(NC(=O)c2ccc(S(=O)(=O)N(C)c3ccccc3)cc2)cc1S(=O)(=O)N1CCOCC1	-2	-1	0.0	-1	7.1%	7.3
O=C(NC1CCCCCCC1)C1c2ccccc2C(=O)N1Cc1ccco1 (stereo not given)	-11	-3	0.5	-9	?	-4.5
O=S(=O)(c1cccs1)N1CCN(CCOc2ccccc2)CC1	13	0	0.7	4	1.8%	-1.0
CCN(Cc1ccccc1)C(=O)COC(=O)c1cc(S(=O)(=O)Nc2ccccc2OC)ccc1O	6	-12	-1.5	-10	3.9%	-0.3
COc1cc(C(=O)N[C@H](C(=O)Nc2nnc(C3CC3)s2)C(C)C)cc(OC)c1OC	22	-2	-0.4	-23	0.2%	-3.0
CCc1cccc(CC)c1NC(=O)c1ccccc1	-10	8	-0.3	-3	-1.0%	-3.5
COc1ccc(CNC(=O)C2(C)Cc3c(-c4ccccc4)ccnc3O2)cc1OC (stereo not given)	18	5	0.5	-9	0.3%	-2.4
Cc1cc2oc(=O)cc(-c3ccccc3)c2c(C)c1-c1ccc(OC(F)(F)F)cc1	10	-3	0.6	-6	1.3%	0.1
Cc1c(C(=O)NCc2cccs2)sc(=O)n1Cc1ccc(S(=O)(=O)N(C)C)cc1	·	-6	1.0	1	0.0%	11
O=C(Nc1cccc(F)c1)NC1(C(=O)N2CCC(O)CC2)CCCCC1	7	2	0.1	1	3.7%	3.8
CN(Cc1nc2ccccc2n1C)S(=O)(=O)c1ccc(Cl)cc1	9	4	0.0	-2	-0.5%	-3.9

Going on with the list.
SMILES	TRPML1 blocker	Six1-Eya2 inh	TRPML1 ag	D2 PAM	PINK1 expr mod	D2 agonist
O/N=C1/CCSc2ccccc21	31	2	0.1	-9	-2.1%	2.0
COc1cccc(C(=O)N2CCN(C3CCC(c4ccccc4)CC3)CC2)c1OC (stereo not given)	-1	-8	-0.5	-32	-2.3%	-2.1
CC1(C(=O)O)CCC(C(=O)Nc2ccc3ccccc3c2)C1(C)C (stereo not given)	-20	3	-0.4	-12	-1.8%	3.4
O=c1c2c3c(sc2nc2n1CCCS2)CCCC3	1	-15	-0.8	1	-1.6%	0.9
O=C(Nc1ccc(C(=O)NC2CCCCC2)cc1)c1cncc(Br)c1	-8	1	-0.2	-8	-0.9%	-2.7
Cc1noc(C)c1COc1cccc(C(=O)OCCOc2ccc(F)cc2)c1	5	43	-0.2	-5	0.0%	0.9
CCCCCCCC(=O)NNC(=O)Cc1ccccc1	5	3	0.6	-9	9.8%[38.3 µM]	-1.0
COc1ccccc1CNC(=O)c1cc2c(-c3ccc(Cl)cc3)nn(C)c2s1	17	·	0.7	·	0.0%	·
COc1ccccc1NC(=O)C(C)OC(=O)CC1CCCCC1 (stereo not given)	12	17	1.3	-2	6.0%	-5.2
O=C1N(c2ccccc2)C2CS(=O)(=O)CC2N1c1ccc(Cl)c(Cl)c1 (stereo not given)	-1	3	0.4	2	-5.6%[38.3 µM]	1.5
O=C1ON=C(c2ccccc2)/C1=C/c1ccc(O)c(O)c1	-22	-14	-0.5	-8	6.6%	0.3
CCOC(=O)N1CCC(NC(=O)C(CC(C)C)NC(=O)C2CCCCC2)CC1 (stereo not given)	16	5	0.3	-11	0.2%	-3.9
NC(N)=NC(=S)Nc1ccc(Cl)cc1	3	-10	0.6	-7	1.6%	-7.6
COc1ccccc1-c1cn[nH]c1-c1ccc(O)cc1O	·	3	·	-1	6.3%	-2.5
CCN(CCCNC(=O)CCCCn1c(=O)[nH]c2ccccc2c1=O)c1ccccc1	-10	-7	-1.1	-7	-0.7%	-2.3
COC(=O)Cn1c(-c2ccc(OC)cc2)c(-c2ccc(OC)cc2)nnc1=O	2	2	-0.8	-15	-1.5%	-5.8
COc1ccc(C2CC(=O)c3c([nH]c(C(=O)OCc4ccccc4)c3C)C2)cc1OC (stereo not given)	-2	·	1.1	·	-0.2%	·

From PubChem BioAssay
